# AMA1 RON2 block: disrupts binding of P. falciparum AMA1 to RON2; AlphaScreen AMA1-biotinylated RON2 peptide binding; Potency, µM (titrated, usually from 58.2 µM), inactives show at the highest dose activity change, negative = inhibition, hits mostly inhibitors; actives 0.2% (n = 360,000); AID 720542;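 also: 0% = vehicle wells and -100% = peptide control; nearly all actives have a fitted effect of over 45% in size; some results filed as inactive show a strong effect at the top dose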
#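 AMA1 (3D7) with his tag at 25 nM final met compounds first, then biotinylated RON2 peptide at 25 nM; detection used donor plus acceptor beads, 10 µg/mL apiece, read by AlphaScreen after 30 min at room temperature.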
# AmpC detergent: inhibitors of E. coli AmpC beta-lactamase with detergent; AmpC hydrolysis of nitrocefin, absorbance 480 nm, 0.01% Triton; actives 0.041% (n = 370,000); AID 485294; Potency, µM (series often up to 114 µM), for inactives: top-dose activity change, negative = inhibition, hits mostly inhibitors; P00811;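 also: 0% = no-compound wells and -100% = no-enzyme wells; nearly all actives have a fitted effect of over 25% in size; some results filed as inactive show a strong effect at the top dose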
# Target sequence (P00811 whole entry, looked up): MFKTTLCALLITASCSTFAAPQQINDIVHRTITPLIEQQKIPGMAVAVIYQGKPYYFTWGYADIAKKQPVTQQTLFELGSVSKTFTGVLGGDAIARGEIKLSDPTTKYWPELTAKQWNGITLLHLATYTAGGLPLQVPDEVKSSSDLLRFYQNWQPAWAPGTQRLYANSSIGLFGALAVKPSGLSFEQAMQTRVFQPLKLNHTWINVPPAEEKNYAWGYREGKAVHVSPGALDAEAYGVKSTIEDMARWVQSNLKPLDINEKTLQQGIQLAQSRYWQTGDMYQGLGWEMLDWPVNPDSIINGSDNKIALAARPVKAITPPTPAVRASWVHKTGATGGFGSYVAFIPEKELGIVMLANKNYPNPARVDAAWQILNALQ
#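 20 mM phosphate pH 7.0 + 0.01% (detergent screen) or 0.0001% Triton X-100; 5.3 nM AmpC reagent; cpd preinc 15 min RT; nitrocefin (800 uM stock) to start; A480 q20 s × 4 min; Activity was normalised to no-enzyme and no-compound control wells.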
# AmpC no deterg: blocks E. coli AmpC beta-lactamase in detergent-free assay; P00811; AmpC nitrocefin hydrolysis, absorbance 480 nm, 0.0001% Triton; Potency, µM (titrated, usually from 57.1 µM), for the others: at the top dose activity change, negative = inhibition, most hits filed as inhibitors; actives 0.52% (n = 330,000); AID 485341;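 also: plate controls were no compound for no effect and no enzyme for full effect; nearly all actives have a fitted effect of over 20% in size; some results filed as inactive show a strong effect at the top dose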
#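 20 mM phosphate pH 7.0 + 0.01% (detergent screen) or 0.0001% Triton X-100; 5.3 nM AmpC reagent; cpd preinc 15 min RT; nitrocefin (800 uM stock) to start; A480 q20 s × 4 min; Activity was normalised to no-enzyme and no-compound control wells.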
# * marks the source's active call; other numbers are inactive results; ? = inconclusive; & = joins results of further samples. Calls follow the shape of the dose curve; as a rule, active = well fitted curve in the direction sought with a large enough effect; inconclusive = small, poorly fitted or top-dose-only effect, or another doubt; inactive = no such curve, though single readings can be large; an effect the other way counts as inactive or inconclusive. Potency is read from the fitted curve at half-maximal effect. Only part of the results is shown; count on the stated rates, not on these rows.
# Start of the data: the first three compounds as a preview:
SMILES,AMA1 RON2 block,AmpC detergent,AmpC no deterg
Nc1ccn([C@H]2CS[C@@H](CO)O2)c(=O)n1,0.0%,4.7%,-7.7%
COc1cc(C(O)CO)ccc1O (stereo unspecified),7.5%,?,-7.3%
CN1CCCN=C1/C=C/c1cccs1,-1.0%,-5.8%,-22.4%

# The list itself, from the first entry:
SMILES,AMA1 RON2 block,AmpC detergent,AmpC no deterg
Nc1ccn([C@H]2CS[C@@H](CO)O2)c(=O)n1,0.0%,4.7%,-7.7%
COc1cc(C(O)CO)ccc1O (stereo unspecified),7.5%,?,-7.3%
CN1CCCN=C1/C=C/c1cccs1,-1.0%,-5.8%,-22.4%
CCOC(=O)c1cncn1C(C)c1ccccc1 (stereo unspecified),12.2%,-9.7%,-2.5%
COc1cc2nc(N3CCN(C(=O)c4ccco4)CC3)nc(N)c2cc1OC,-4.2%,-3.4%&-4.6%,-18.1%&-23.1%
O=C1C(CCS(=O)c2ccccc2)C(=O)N(c2ccccc2)N1c1ccccc1 (stereo unspecified),-0.8%,-7.1%,-47.3%
NNC(=O)c1nc(-c2ccccc2)cc(-c2ccccc2)n1,25.2%,?,-3.5%
CCn1cc(C(=O)O)c(=O)c2cc(F)c(N3CCN(C)CC3)cc21,21.2%,-4.9%,5.1%

# Single values from the entries so far:
# For AmpC detergent, `CCOC(=O)c1cncn1C(C)c1ccccc1` (stereo unspecified) is listed with -9.7%
# For AmpC detergent, `O=C1C(CCS(=O)c2ccccc2)C(=O)N(c2ccccc2)N1c1ccccc1` (stereo unspecified) is listed with -7.1%
# For AMA1 RON2 block, `CCn1cc(C(=O)O)c(=O)c2cc(F)c(N3CCN(C)CC3)cc21` is listed with 21.2%
# For AmpC detergent, `CN1CCCN=C1/C=C/c1cccs1` is listed with -5.8%

# Reformatted: results already given
canonical_smiles: CCOC(=O)c1cncn1C(C)c1ccccc1 (stereo unspecified)
  AMA1 RON2 block: 12.2%
  AmpC detergent: -9.7%
  AmpC no deterg: -2.5%
canonical_smiles: NNC(=O)c1nc(-c2ccccc2)cc(-c2ccccc2)n1
  AMA1 RON2 block: 25.2%
  AmpC detergent: ?
  AmpC no deterg: -3.5%
